RecA intein inh = blocks M. tuberculosis RecA intein splicing | P9WHJ3 | cell-free RecA intein splicing, fluorescence | inhibition, %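 (about 9 µM by stock and volumes)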 | actives 0.75% (n = 290,000) | AID 2221; in the data active = inhibition above about 30%; inconclusive = no clear call, values can overlap the other calls;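 note: 0% = vehicle wells and 100% = reference inhibitor control wells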
Target sequence (P9WHJ3 whole entry, looked up): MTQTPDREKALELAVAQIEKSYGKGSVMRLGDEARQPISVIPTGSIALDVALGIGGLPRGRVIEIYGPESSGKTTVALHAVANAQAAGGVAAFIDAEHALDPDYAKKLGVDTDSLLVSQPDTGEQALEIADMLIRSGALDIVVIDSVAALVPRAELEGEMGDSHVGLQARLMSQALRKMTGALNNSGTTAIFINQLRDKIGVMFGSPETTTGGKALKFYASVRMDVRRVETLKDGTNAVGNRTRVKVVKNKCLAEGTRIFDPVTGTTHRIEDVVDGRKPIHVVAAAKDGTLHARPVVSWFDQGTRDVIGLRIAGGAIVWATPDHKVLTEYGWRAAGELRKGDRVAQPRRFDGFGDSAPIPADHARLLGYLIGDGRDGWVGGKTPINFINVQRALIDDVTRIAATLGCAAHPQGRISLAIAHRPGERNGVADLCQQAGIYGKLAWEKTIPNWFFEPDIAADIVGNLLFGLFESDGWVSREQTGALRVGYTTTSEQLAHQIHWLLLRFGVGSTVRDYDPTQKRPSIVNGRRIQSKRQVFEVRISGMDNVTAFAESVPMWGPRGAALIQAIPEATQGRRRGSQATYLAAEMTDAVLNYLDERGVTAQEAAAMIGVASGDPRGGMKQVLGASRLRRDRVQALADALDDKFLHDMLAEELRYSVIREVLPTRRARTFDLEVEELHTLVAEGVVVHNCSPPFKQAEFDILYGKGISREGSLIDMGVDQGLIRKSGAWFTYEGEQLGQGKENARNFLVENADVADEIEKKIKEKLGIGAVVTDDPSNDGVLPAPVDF
Mtb betalactam = beta-lactam sensitization of Mtb H37Rv; actives 0.27% (n = 330,000); M. tuberculosis H37Rv growth with meropenem, percent inhibition; hits of this screen are not shown here; inhibition, % at 25 µM;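 active = about 74% or more and at least 40 points above the plate without the antibiotic, then above 30% in a dose series; inconclusive = first-round hits that could not be retested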;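 note: growth measured after seven days incubation then overnight dye step; 0% = bacteria only wells and 100% = bacteria with antibiotic; twin plates without the antibiotic show which effects depend on it; some results filed as inactive read as strong as hits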
YopH PTP inh = YopH (Yersinia) phosphatase inhibition; inhibition, %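 (about 10 µM by stock and volumes)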; actives 0.16% (n = 140,000); fluorescence Ex485/Em525;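 active = inhibition of 50% or more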;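 note: controls were vehicle for no effect and minimum signal wells for full effect; inactives centre near -20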
Mtb growth = M. tuberculosis H37Rv growth inhibitors, H37Rv strain (AID 1626). M. tuberculosis H37Rv growth inhibition; higher % means a stronger effect. one-dose inhibition, % at 10 µM; IC50 in µM for titrated hits. actives 0.95% (n = 220,000);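 active = confirmed in a dose series; inconclusive = inhibition above 80% but not taken into the dose series; inactive = below 80% or under 30% at every dose of the series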;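 note: bacteria incubated seven days before Alamar blue readout; 0% = bacteria only wells and 100% = bacteria with antibiotic wells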
Arbovirus anti = blocks arbovirus infection. AID 1251. inhibition, % at 10 µM. arbovirus infection cell-based antiviral screen. actives 0.37% (n = 200,000);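 active = inhibition from about 30%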;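 note: bluetongue infection of BSR cells; cell survival read as ATP light after 72 h; 0% = infected wells without compound and 100% = uninfected wells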
Arbovirus anti repeat = further read-out of Arbovirus anti, marked with its call; inhibition, %; measured here: 10K subset replicate screen; many hits read low in the repeat;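 first of two repeat runs on a subset; 0% = infected and 100% = uninfected wells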
* = called active by the depositor; ? = inconclusive; . = no result given. Only part of the results is shown; the hit share may differ from the screen's.

SMILES	RecA intein inh	Mtb betalactam	YopH PTP inh	Mtb growth	Arbovirus anti	others
CCOC(=O)CNc1nc(OCC#N)nc(N2CCOCC2)n1	-0.6	4	-46	-6%	0
COC(=O)CSc1ncnc2scc(-c3ccccc3)c12	1.9	58	.	1%	.
Cc1[nH]c2ccccc2c1C(=O)CCl	28	.	.	80%	-38
O=C(NCc1ccc2c(c1)OCO2)c1cc(COc2c(F)cccc2F)on1	1.0	?	.	.	.
O=C(NC(NC(=S)N1CCOCC1)C(Cl)(Cl)Cl)c1cccc2ccccc12 (stereo not drawn)	2.2	14	-14	10%	5
O=C1OCc2nc3cc4c(cc3c(-c3ccc(F)cc3)c21)OCO4	-2.9	8	.	.	.
O=C(COC(=O)CCc1c[nH]c2ccccc12)NCCc1ccccc1	1.0	99	.	.	.
O=C(CCn1c(=O)oc2ccccc21)Nc1cccc(Cl)c1	0.9	-6	-25	12%	17	Arbovirus anti repeat=5
CN1CCN(Cc2ccccc2Sc2ccccc2)CC1	2.9	6	-22	0%	-23
COCCNC(=O)c1cc(-c2ccncc2)nc2ccc(S(=O)(=O)N3CCOCC3)cc12	0.7	2	.	0%	5
COc1cccc(NC(=S)N2CCn3cccc3C2c2cccnc2)c1 (stereo not drawn)	1.3	2	.	1%	6
O=C(COC(=O)Cc1c(Cl)cccc1Cl)Nc1ccccc1-c1ccccc1	7.1	7	-7	2%	-1
CN1CCN(CCCNC(=O)c2ccc(CS(=O)(=O)c3ccc(Br)cc3)o2)CC1	-0.1	7	-26	-4%	1	Arbovirus anti repeat=1
COc1ccc(C)cc1NC(=O)CCc1c(C)nn(-c2ccc(N3CCCCC3)nn2)c1C	0.1	4	.	.	.
Clc1ccc(-n2ncc3c(N4CCCC4)ncnc32)cc1	7.8	-7	-23	5%	-3
c1ccc(SCc2nc(-c3ccncc3)n[nH]2)nc1	-1.1	-6	.	5%	6
COc1ccc(N2CCN(Cc3cc(=O)oc4ccc(Cl)cc34)CC2)cc1	2.3	?	-2	-7%	-9
Cc1ccccc1CSc1nc2c(c(=O)[nH]1)CCC2	-0.1	-9	-2	10%	3
Cc1ccc(S(=O)(=O)NC(CC(C)C)C(=O)NCC(C)(C)N2CCOCC2)cc1 (stereo not drawn)	-0.9	-3	.	.	.
COCCN(CCOC)C(=O)C12CCC(C)(C(=O)C1)C2(C)C (stereo not drawn)	-4.0	-7	-40	-4%	0
CC(C)(C)OC(=O)N[C@@H](CCCCNC(=O)OCc1ccccc1)c1nnc([C@H](CCCCNC(=O)OCc2ccccc2)NC(=O)OC(C)(C)C)o1	-4.3	-6	.	-1%	.
COc1ccc(NC(=S)NC(NC(=O)CF)C(Cl)(Cl)Cl)cc1[N+](=O)[O-] (stereo not drawn)	-3.3	-7	.	0%	17
COc1ccc(-c2n[nH]c(C(F)(F)F)c2-c2cc3ccccc3o2)c(O)c1	17	71	-39	32%	-28	Arbovirus anti repeat=-28
CC(=O)OCC(=O)N1CCN(c2ccc([N+](=O)[O-])cc2)CC1	-0.3	-1	-18	-4%	-2
COc1ccccc1C(=O)NNC(=O)C(=O)NCc1ccccc1	6.9	79	.	70%	4

Grouped by structure, the entries above with an aryl thioether with sulfur outside any ring (4)
SMILES	RecA intein inh	Mtb betalactam	YopH PTP inh	Mtb growth	Arbovirus anti	others
COC(=O)CSc1ncnc2scc(-c3ccccc3)c12	1.9	58	.	1%	.
CN1CCN(Cc2ccccc2Sc2ccccc2)CC1	2.9	6	-22	0%	-23
c1ccc(SCc2nc(-c3ccncc3)n[nH]2)nc1	-1.1	-6	.	5%	6
Cc1ccccc1CSc1nc2c(c(=O)[nH]1)CCC2	-0.1	-9	-2	10%	3

Carrying on:
SMILES	RecA intein inh	Mtb betalactam	YopH PTP inh	Mtb growth	Arbovirus anti	others
CCCCOC(=O)n1ccc(C(=O)Nc2ccccc2OC)n1	1.8	-6	-30	-1%	0
CC(=O)Oc1ccc(C(=O)Nc2cccc(-c3nnc(-c4ccco4)o3)c2)cc1	3.2	82	.	34%	.
O=C(Nc1ccccc1)c1cn(CCBr)cn1	-1.3	-5	.	.	.
CCCCNC(=S)NCc1ccc2c(c1)cc(C)n2C	2.5	56	-24	10%	12
CC1(C)C(c2ccccc2)=[N+]([O-])C2(CCCCC2=O)N1O (stereo not drawn)	0.7	0	-15	-4%	2
CC(C)OC(=O)c1nn2c(C(F)(F)F)cc(-c3ccco3)nc2c1Cl	-15	2	11	7%	0
COc1cc2c(cc1OC)C(c1ccccc1)NCC2 (stereo not drawn)	-0.6	6	.	.	.
Cc1cccc(-n2c(O)c(C=Nc3c(C)n(C)n(-c4ccccc4)c3=O)c3ccccc3c2=O)n1	26	-5	-38	1%	-9
O=C(CCc1ccc(Oc2cc([N+](=O)[O-])cc([N+](=O)[O-])c2)cc1)NC1CCCC1	-5.3	64	-14	11%	1
Cc1cc(NC(=O)CSc2nc(C3CCCCC3)nc3ccccc23)no1	.	0	-2	7%	3
Cc1ccc(NC(=O)COC(=O)Cn2c(C)csc2=O)cc1	0.4	-34	-13	0%	10
CN(Cc1ccccc1)C1CCCN(C(=O)c2ccc(Cl)s2)C1 (stereo not drawn)	-0.5	10	.	.	.
COc1cc(NC(=O)c2cccs2)c(OC)cc1NC(=O)CCC(=O)Nc1cccc2ncccc12	-0.2	0	.	7%	-22
COc1ccc(NC(=S)NCc2cccs2)cc1OC	4.4	2	.	-4%	1
CCSCc1nnc(SCC(=O)Nc2ccc(OC)cc2)n1C	-1.6	27	.	7%	-1
Cc1cc(C)cc(OCC(=O)NCCN2CCOCC2)c1	-0.9	-18	-10	-6%	-1
COc1ccccc1C(CNC(=O)c1cccc(NS(=O)(=O)c2ccc(Br)cc2)c1)N(C)C (stereo not drawn)	0.4	-3	.	.	.
CC(C)c1ccc(OCc2ccc(C(=O)O)o2)cc1	0.3	-12	.	-11%	.
COc1cc(/C=C\C(=O)Nc2cc(=O)n(C)c(=O)n2C)cc(OC)c1OC	1.4	-10	.	-6%	-1
O=C(Nc1ccc(N2CCN(C(=O)c3cccs3)CC2)cc1)c1cccnc1Cl	-1.5	8	.	0%	7
CCC(=O)Nc1cccc(-c2csc(-c3ccccc3)n2)c1	6.6	20	-38	26%	-36
Cc1cc(N2CCCC2)nc2ccc(NC(=S)NC(C)C)cc12	-6.3	-11	.	1%	-16
Cc1noc(COc2ccccc2OCc2onc(C)c2Cl)c1Cl	8.8	11	-21	8%	-19
CCN(CC)CCOC(=O)CCc1cccc2ccccc12	-2.0	-7	-11	-4%	1
O=C(NCC(c1cccs1)N1CCOCC1)c1ccc(Cl)s1 (stereo not drawn)	1.2	4	-39	3%	0

Filtered by structure: the entries above with a furan ring, fused or not (5)
SMILES	RecA intein inh	Mtb betalactam	YopH PTP inh	Mtb growth	Arbovirus anti	others
CN1CCN(CCCNC(=O)c2ccc(CS(=O)(=O)c3ccc(Br)cc3)o2)CC1	-0.1	7	-26	-4%	1	Arbovirus anti repeat=1
COc1ccc(-c2n[nH]c(C(F)(F)F)c2-c2cc3ccccc3o2)c(O)c1	17	71	-39	32%	-28	Arbovirus anti repeat=-28
CC(=O)Oc1ccc(C(=O)Nc2cccc(-c3nnc(-c4ccco4)o3)c2)cc1	3.2	82	.	34%	.
CC(C)OC(=O)c1nn2c(C(F)(F)F)cc(-c3ccco3)nc2c1Cl	-15	2	11	7%	0
CC(C)c1ccc(OCc2ccc(C(=O)O)o2)cc1	0.3	-12	.	-11%	.

Later entries:
SMILES	RecA intein inh	Mtb betalactam	YopH PTP inh	Mtb growth	Arbovirus anti	others
CCOC(=O)C[C@H]1c2cc(F)ccc2S(=O)(=O)N1C1CCCC1	-1.3	-4	.	-7%	.
CCOc1ccc2nc(N/C(N)=N/C(=S)Nc3ccc(OC)cc3)nc(C)c2c1	-3.7	1	.	7%	0
Cc1cccc(C(=O)NCC(C)NC(=O)c2cccc(C)c2)c1 (stereo not drawn)	1.3	0	.	.	.
CCNC(=O)NC(=O)C(C)OC(=O)C(C)(C)Oc1ccc(Cl)cc1 (stereo not drawn)	1.0	7	.	4%	7
COc1ccc(CCN(Cc2ccccn2)C(=S)Nc2ccccc2F)cc1OC	-0.3	-1	.	3%	8
CCOC(=O)c1sc(NC(=O)c2cccs2)cc1C	-0.9	2	-9	5%	-9
O=C(c1ccc(-n2cncn2)c([N+](=O)[O-])c1)N1CCN(c2cccc(Cl)c2)CC1	-1.9	1	.	.	.
Cc1cccc(N(CC(=O)Nc2c(C)n(C)n(-c3ccccc3)c2=O)S(C)(=O)=O)c1C	0.2	-4	-13	-7%	2	Arbovirus anti repeat=-3
Cc1ccc(CC(=O)N/N=C/c2ccc(OC(=O)c3ccc([N+](=O)[O-])cc3)cc2)cc1	-5.4	86	-32	47%	-15
C=CCn1c(C)nnc1SCC(=O)Nc1oc(C)c2c(C)n[nH]c(=O)c12	1.7	1	.	.	.
COc1cccc(NC(=O)CC(c2ccc(OC(C)C)cc2)c2ccccc2OC)c1 (stereo not drawn)	4.3	-4	-26	4%	-5
O=C(c1ccc2c(c1)N(Cc1ccccc1)CCS2)N1CCCCC1	11	-6	-12	-9%	-15
CC(C)N1CCN(Cc2cnc(N3CCCC3)s2)CC1CCO (stereo not drawn)	.	.	.	-5%	-4
O=C1CC(NS(=O)(=O)c2cccs2)CN1c1ccc(F)cc1 (stereo not drawn)	0.4	2	.	.	.
Cc1ccccc1C(=O)c1cccn1CC(=O)NCc1ccc2c(c1)OCO2	-1.8	?	-11	4%	-16
Cc1ccc(-c2nc3ncccc3n2O)cc1	-0.2	2	.	.	.
O=c1ccnc(Nc2ccc([N+](=O)[O-])cc2)[nH]1	-0.1	-7	.	.	.
C=CCn1c(SCC(=O)NCc2ccc3c(c2)OCO3)nc2scc(-c3ccc(F)cc3)c2c1=O	-1.3	13	-15	-2%	-11
COc1ccc(NC(=S)NC23CC4CC(CC(C4)C2)C3)cc1OC	-0.3	-6	.	.	.
CN(C)S(=O)(=O)c1ccc(NC(=S)NC(=O)c2ccc(Br)o2)cc1	7.7	-6	.	0%	1
Cc1cc(C)n(-c2nnc(C)n2NS(=O)(=O)c2ccc(F)cc2)n1	-0.7	0	-40	-6%	0
CCOC(=O)C1(CCSC)NC(c2ccco2)C2C(=O)N(C)C(=O)C21 (stereo not drawn)	-0.2	13	-43	-13%	0
CC(C)CN(CC(C)C)C(=O)Nc1ccccc1F	0.0	-10	.	5%	-10
O=C(COc1ccccc1)NCc1cccs1	-0.9	18	-10	14%	7
O=C(Oc1cccc(N2C(=O)CCC2=O)c1)C1CC(=O)N(c2ccc(Br)cc2)C1 (stereo not drawn)	8.7	19	-18	-15%	5
Carrying on.
SMILES	RecA intein inh	Mtb betalactam	YopH PTP inh	Mtb growth	Arbovirus anti	others
CCc1ccc(Nc2cc(C)nc3nc(C)nn23)cc1	3.3	3	-14	.	2	Arbovirus anti repeat=0
COc1cc(C2NC(=S)NC(O)(C(F)(F)F)C2C(=O)c2cccs2)cc(OC)c1O (stereo not drawn)	-4.1	4	2	1%	14
CC(=O)Nc1ccc(S(=O)(=O)N(C)c2nc3ccccc3nc2Cl)cc1	-8.9	-3	.	.	.
COc1ccc(N(CC(=O)NCC(C)C)S(=O)(=O)c2ccccc2)cc1	1.9	-7	.	-19%	1
CCOC(=O)C1=C(C)C(c2ccccc2O)NC(=O)N1 (stereo not drawn)	1.1	-5	-14	-5%	0
CCOc1cc(C(=O)OCc2ccc([N+](=O)[O-])cc2)ccc1OCC(=O)N1CCOCC1	-2.3	-2	.	.	.
Cc1cccc(N2CCN(C(=O)c3ccc(NC4=NC5CS(=O)(=O)CC5S4)cc3)CC2C)c1 (stereo not drawn)	-1.7	3	.	.	.
COc1ccc(NC(=O)COC(C)=O)cc1Cl	1.9	27	-24	2%	0
COc1ccc(C(CC(=O)N2CCCC2)c2ccc(F)cc2)cc1 (stereo not drawn)	1.5	-1	.	.	.
Cc1ccc(C(=O)/C=C/c2ccc(F)cc2)o1	-2.5	19	-27	1%	-1
CCOc1ccccc1N1C(=O)CN(Cc2ccc(OC)c(OC)c2)C1=S	-1.6	8	.	.	.
COc1ccc(CNC(=S)NCc2ccc(Cl)cc2)cc1OC	-2.2	-3	.	.	.
O=C(CNC(=O)c1ccco1)OC(C(=O)c1ccccc1)c1ccccc1 (stereo not drawn)	1.4	-1	-35	-9%	6
Cn1c(=O)oc2cc(S(=O)(=O)N3CCN(c4cccc(Cl)c4)CC3)ccc21	-6.5	1	-8	-2%	-14
O=S1(=O)N=C(N2CCc3ccccc3C2)c2ccccc21	1.3	-2	-16	-8%	4
Cc1ccc(S(=O)(=O)N(NC2=NS(=O)(=O)c3ccccc32)C(=O)c2ccccc2)cc1	-1.4	1	-28	-6%	-1
Cc1ccc(-n2nc3c(N4CCC(C(=O)N5CCN(C)CC5)CC4)nnc(C)c3c2C)cc1	-4.1	1	.	.	.
Nc1c(C(=O)N/N=C/c2cccnc2)cnn1-c1ccccc1	-3.0	-3	-5	3%	-7
COc1ccc(-c2cc(=Nc3ccc(C)cc3)c3ccccc3o2)cc1	3.6	.	-41	13%	6

From PubChem
